TRPML1 ag: activates the human TRPML1 channel. 0.12% of 410,000 active. activation, % (no concentration beside the values). Q9GZU1. TRPML1-expressing cells, Ca2+ dye fluorescence, FDSS; host cell line not named in the record; reference of the full effect not given here; in the data active = activation above about 50%; inconclusive = about 30% to 50%; inactive = below about 30%; further: 0% is about no effect; the text of the record puts the active cut at 80%
Target sequence (Q9GZU1 whole entry, looked up): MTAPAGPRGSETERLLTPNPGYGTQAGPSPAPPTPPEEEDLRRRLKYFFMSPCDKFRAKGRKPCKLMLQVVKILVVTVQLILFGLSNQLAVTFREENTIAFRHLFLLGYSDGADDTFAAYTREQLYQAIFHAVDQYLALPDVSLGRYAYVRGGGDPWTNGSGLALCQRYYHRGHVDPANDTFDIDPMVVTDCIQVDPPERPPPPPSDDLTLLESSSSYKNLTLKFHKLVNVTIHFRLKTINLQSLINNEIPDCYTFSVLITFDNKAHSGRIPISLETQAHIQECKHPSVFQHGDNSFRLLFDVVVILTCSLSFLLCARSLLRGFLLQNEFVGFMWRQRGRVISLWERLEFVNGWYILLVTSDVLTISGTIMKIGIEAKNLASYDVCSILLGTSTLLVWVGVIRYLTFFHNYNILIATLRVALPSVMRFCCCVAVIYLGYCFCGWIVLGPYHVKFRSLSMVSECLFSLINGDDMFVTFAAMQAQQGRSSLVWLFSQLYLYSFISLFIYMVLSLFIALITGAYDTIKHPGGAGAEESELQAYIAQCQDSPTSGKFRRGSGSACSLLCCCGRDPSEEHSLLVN
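In this qHTS format, compounds were pin-transferred onto Ca8-dye-loaded TRPML1-DL cells induced with Tet overnight, and intracellular Ca2+ fluorescence was recorded kinetically for 110 s after a 10 s baseline. A subsequent 4uM final 54-4 (EC80) addition followed by a second 110 s read served as the antagonist phase.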
TRPML1 blocker: inhibitors of human TRPML1 channel | Q9GZU1 | TRPML1-inducible cells, Ca2+ dye fluorescence, FDSS; stronger effect = lower value; inhibition of EC80 agonist-evoked calcium signal | activity change, negative = inhibition, % (concentration not given with the values) | 0.02% of 390,000 active | AID 624415; in the data active means activity change below about -50%; inconclusive means about -30% to -50%; inactive means above about -30%;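 further: stimulus is agonist 54-4 at its EC80 concentration; on the % scale 0 is the no-effect control and ±100 the full control effect; compound concentration not given in the record; the text of the record puts the active cut at -80%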
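Calcium fluorescence in TRPML1-DL cells induced overnight with Tet: a 110 s read after compound pin addition, then a 110 s antagonist read after challenge with 54-4 at 4 uM final (EC80).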
gsp agonist: activates gsp, the McCune-Albright syndrome mutation. Potency, µM (doses to about 76.9 µM), for inactives: at the top dose activation (cAMP increase), actives largely listed as activators. 0.13% of 340,000 active. gsp mutant cells, cAMP HTRF, 30 min; control for the full effect not named in the record; active = well fitted activation curve with a large enough effect; inconclusive = small, poorly fitted or top-dose-only effect, or another doubt; inactive = no such curve, though single readings can be large or run the other way; cell line not stated here;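 further: phosphodiesterase inhibitor Ro 20-1724 added with compounds to block cAMP breakdown; potency means the concentration at half of the fitted maximal effect; nearly all actives have a fitted effect of over 60% in size; about a fifth of the inactives were tested at one dose only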
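Cells stably selected in G418 were plated at 2000/well, grown 16-24 hr, then given compounds in DMSO with the PDE inhibitor […] (300 uM solution added) for 30 min at 37C; cAMP was read by HTRF.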
ClpP mod: qHTS Assay for Activators of ClpP; purified B. subtilis ClpP, FRET peptide cleavage, 20 min; 1.9% of 340,000 active; AID 651965, 2013; Potency, µM (highest dose often 57.5 µM), inactives show at the top dose activity change, negative = active; active = well fitted falling curve with a large enough effect; inconclusive = small, poorly fitted or top-dose-only effect; inactive = no such curve, though single readings can be large or run the other way; further: potency means the concentration at half of the fitted maximal effect; the source files actives as falling curves though it sought activators and does not explain the sign; nearly all actives have a fitted effect of over 65% in size; many hits overshoot -100%
Target sequence (P80244 whole entry, looked up): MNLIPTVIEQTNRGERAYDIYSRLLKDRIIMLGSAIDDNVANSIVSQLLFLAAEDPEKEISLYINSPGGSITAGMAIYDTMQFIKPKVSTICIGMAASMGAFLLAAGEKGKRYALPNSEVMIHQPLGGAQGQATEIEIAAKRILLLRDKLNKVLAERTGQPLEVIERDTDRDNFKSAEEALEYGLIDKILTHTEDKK
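Purified B. subtilis ClpP, 10 microg/mL final in Tris/HCl pH8 with KCl, BSA, glycerol and Tween-20, cleaved an Abz/nitrotyrosine-quenched decapeptide. Fluorescence (ex 320, em 430) was read at 0 and 20 min at room temperature. Delta was normalized to 5.8 microM ADEP and DMSO/no-enzyme controls.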
gsp antagonist: gsp mutant antagonism; gsp-mutant cells, cAMP HTRF, 30 min; control for the full effect not named in the record; Potency, µM (series often up to 76.9 µM), for the others: top-dose activity change, negative = inhibition, usual class: inhibitors; 0.4% of 340,000 active; AID 624288; active = falling curve of any shape with a large fitted effect; inconclusive = falling curve, mostly with a smaller effect; inactive = flat or rising curve; cell line not stated here;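 further: intracellular cAMP measured with PDE inhibitor Ro 20-1724 present during compound exposure; potency means the concentration at half of the fitted maximal effect; on the % scale 0 is the no-effect control and ±100 the full control effect; nearly all actives have a fitted effect of over 65% in size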
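Measurement of cellular cAMP by homogeneous time-resolved fluorescence following a 30 min compound exposure at 37C. The PDE inhibitor […] was present throughout; the assay buffer was DPBS with 0.05% BSA and 0.005% Tween 20.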
Menin-MLL FL inh: menin-MLL binding inhibition, fluorescein peptide | FP activity change, % at 61.4 µM | AID 1766 | Fluorescence polarization, fluorescein-MLL peptide displacement from menin | 290,000 tested, under 10 active; inconclusive = falling polarisation curve, or a change in total fluorescence; inactive = total fluorescence flat and polarisation flat or rising; no compound was filed as active; the % refers to the polarisation; negative = inhibition;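 further: % of control where 0% means no effect; inhibitors lower the polarisation; unlabelled MLL peptide was the positive control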
* marks the source's active call; other numbers are inactive results; ? = inconclusive; · = not tested or not shown; [ ] = dose if it differs, or a comment. Hits appear at their usual frequency. About 2.1% of those tested had a hit in this group.

Sample of the layout:
SMILES	TRPML1 ag	TRPML1 blocker	gsp agonist	ClpP mod	gsp antagonist	Menin-MLL FL inh
CCOc1ccc(S(=O)(=O)n2cc(F)c(=O)[nH]c2=O)cc1[N+](=O)[O-]	1.1	1.6	-2.7%	3.0%	-22.7%	0.3
Cc1oc(/C=N/NC(=O)CN(c2ccccc2Br)S(C)(=O)=O)cc1Br	2.5	-6.1	-26.9%	-3.0%	-32.3%	-1.1
Cc1ccc(-c2cccc(NC(=O)C3C4C=CC(C4)C3C(=O)O)c2)o1 (stereo unspecified)	5.1	8.1	-0.1%	-25.4%	0.2%	3.3

Main list (from the top)
SMILES	TRPML1 ag	TRPML1 blocker	gsp agonist	ClpP mod	gsp antagonist	Menin-MLL FL inh
CCOc1ccc(S(=O)(=O)n2cc(F)c(=O)[nH]c2=O)cc1[N+](=O)[O-]	1.1	1.6	-2.7%	3.0%	-22.7%	0.3
Cc1oc(/C=N/NC(=O)CN(c2ccccc2Br)S(C)(=O)=O)cc1Br	2.5	-6.1	-26.9%	-3.0%	-32.3%	-1.1
Cc1ccc(-c2cccc(NC(=O)C3C4C=CC(C4)C3C(=O)O)c2)o1 (stereo unspecified)	5.1	8.1	-0.1%	-25.4%	0.2%	3.3
COc1cc(C(C)=O)ccc1OC(=O)N1CCOCC1	0.0	6.5	-42.4%[inhibitor]	-1.6%	·	·
Cc1ccccc1NC(=O)c1c(C)oc2ccc(O)c(CN(C)Cc3ccccc3)c12	-0.2	-11.2	·	-6.3%	·	·
COc1ccc(S(=O)(=O)NCCCCCC(=O)NCCCN2CCOCC2)cc1	-0.3	-8.1	-23.2%	1.5%	9.3%	1.2
COc1ccc(-n2c(COc3cccc(C)c3)n[nH]c2=S)cc1	-0.6	18.7	-82.0%[inhibitor]	·	-23.7%	-15.2
CCCCOC(=O)N1CCOCCOCCOCC1	0.6	0.7	-19.3%	·	9.0%	1.2
CC(C)c1ccc(Nc2cc(C(=O)NCCc3ccccc3)c3ccccc3n2)cc1	1.9	28.4	·	115.7%	·	·
Nc1[nH]nc2c1NN(c1ccc(Cl)cc1Cl)N2	-0.1	4.8	-25.2%	-28.0%	5.1%	3.1
CCOC(=O)CCCn1ncn2c(cc3occc32)c1=O	-0.6	1.4	?	-1.3%	-0.5%	1.4
CCC1(c2ccc(F)cc2)NC(=O)N(CC(=O)NC2CCCC(C)C2C)C1=O (stereo unspecified)	0.5	-0.5	-11.1%	-0.9%	-5.5%	·
Cc1nc([N+](=O)[O-])cn1CC(=O)NCCCO	0.6	20.5	-6.7%	1.0%	15.4%	-5.2
CC(C)N(C(=O)COC(=O)Cn1cnc2ccccc21)c1ccccc1	0.5	12.1	29.1%[15.4 µM]	·	-14.4%	·
Oc1ccccc1-n1nc2ccc3nonc3c2n1	·	·	-46.5%[inhibitor]	0.8%	-6.7%	-1.7
Cc1ccc(-n2c(C)cn(C(=O)c3ccccc3)c2=S)cc1	2.6	55.7	-6.4%	?	-6.8%	3.6
COc1cccc(NC(=O)C(C)NS(=O)(=O)c2ccc(Br)cc2)c1 (stereo unspecified)	0.0	5.8	-10.5%	-0.7%	8.2%	·
CC(=O)N1CCC[C@H]1C(=O)O	0.4	-11.2	-40.1%	1.1%	1.5%	-3.1
COCCNC(=O)CCCn1c(SCC(=O)Nc2cccc(C)c2)nc2c(sc3ccccc32)c1=O	0.1	-10.6	·	-28.1%	·	·
COC(=O)c1ccc2c(=O)n(Cc3ccc(C(=O)NCCCN4CCOCC4)cc3)c(=S)[nH]c2c1	0.1	-3.4	-1.9%	·	7.5%	·
CC(C)c1ccccc1NC(=O)c1ccccc1NC(=O)C1CCCCC1	2.7	28.9	29.4%	0.4%	-11.4%	3.9
COc1cc(C(=O)N/N=C/c2cn(Cc3cccc(F)c3)c3ccccc23)ccc1O	-0.7	57.4	-0.4%[15.4 µM]	-11.0%	-8.8%	-0.6
CC1=C(C(=O)OCc2ccccc2)C(c2ccc(C)o2)C2=C(CCCC2=O)N1 (stereo unspecified)	0.2	-9.2	12.5%	-10.4%	-4.8%	-0.6
CCCCOc1ccc(C(=O)Nc2sc3c(c2C(=O)OCC)CCCCC3)cc1	-0.1	22.1	·	-0.7%	·	·
CCN1C(=O)[C@@H]2[C@@H](c3ccc(-c4cccc(Cl)c4)cc3)N3CCC[C@@]3(C(=O)OC)[C@@H]2C1=O	-0.6	9.3	·	0.1%	-17.0%	·

Further entries
SMILES	TRPML1 ag	TRPML1 blocker	gsp agonist	ClpP mod	gsp antagonist	Menin-MLL FL inh
CC(=O)Nc1nnc(-c2ccco2)o1	-0.4	-12.5	-13.4%[15.4 µM]	·	-6.0%	-2.7
COc1cccc(NC(=O)Cn2c(=O)n(-c3cc(OC)c(OC)c(OC)c3)c(=O)c3ccccc32)c1	1.0	-4.8	-15.3%[15.4 µM]	·	-9.9%	0.0
CCN(CC)S(=O)(=O)c1ccc(NC(=O)C(OC)c2ccccc2)cc1 (stereo unspecified)	3.6	8.1	0.5%	-0.8%	3.0%	-2.2
CC1(C)CC(=O)c2sc(NS(=O)(=O)c3cc(Cl)ccc3Cl)nc2C1	0.1	-4.5	14.2%[15.4 µM]	·	?	0.2
Cc1nc(S/C(=C/c2ccc(-c3cc(Cl)ccc3C)o2)C(=O)O)n[nH]1	0.7	73.8	-24.7%	0.5%	28.2µM*	?
COc1cccc(C(=O)Nc2nnc(S(=O)(=O)Nc3cccc(C)c3)s2)c1	0.4	18.5	17.1%	0.7%	-14.1%	2.8
COc1ccc2c(c1)c(=O)c(Br)c(C)n2Cc1ccccc1	1.9	9.8	26.1%	-7.6%	-3.0%	-0.4
O=C(NC1CCCCC1)C12CC3CC(CC(Cl)(C3)C1)C2	0.1	3.3	0.9%	4.1%	-8.5%	4.6
Cc1cc(C)n(CCCN2C(=O)c3cccc4cccc(c34)C2=O)n1	-0.7	-8.4	?	·	-7.4%	-4.4
O=C(COC(=O)/C=C/c1cccc(C(F)(F)F)c1)Nc1cccc2ccccc12	0.0	-13.3	23.5%	0.3%	4.2%	-8.7
COc1ccc(C2Nc3ccccc3C(=O)N2c2ccccc2)cc1Cn1cc([N+](=O)[O-])cn1 (stereo unspecified)	0.2	-10.6	17.2%	·	-2.3%	-0.3
COc1ccc(N(CC(=O)NCCSc2ccccc2)S(=O)(=O)c2ccccc2)cc1OC	1.9	-10.0	-28.2%	-3.7%	-17.7%	·
COc1ccc(Cc2nnc3n2N=C(c2cc4ccccc4o2)CS3)cc1OC	1.5	9.1	?	0.0%	-5.0%	·
COc1ccc(CNC(=O)c2ccc(S(=O)(=O)NCc3ccco3)cc2)cc1	-1.1	26.9	-24.7%	-0.9%	-1.5%	·
CCOc1ccc(OCC)c(Nc2cc(C)nc3ncnn23)c1	1.7	4.0	1.3%	-1.4%	8.2%	-0.1
CCc1cc2c(CN3CCN(Cc4ccccc4)CC3)cc(=O)oc2cc1O	1.3	10.1	-22.1%	·	15.2%	9.5
O=C(NC1CCCC1)c1ccc2nc[nH]c2c1	-0.8	-0.1	3.1%	0.7%	5.7%	1.0
Cc1cc(C)c(C)c(S(=O)(=O)N2CCN(CC(=O)c3c(N)n(Cc4ccccc4)c(=O)n(C)c3=O)CC2)c1C	-0.9	8.8	7.7%	0.9%	3.8%	3.1
CCOC(=O)N1CCN(CCC(=O)Nc2cc(OC)ccc2OC)CC1	-0.1	-10.0	16.6%[15.4 µM]	-4.9%	-29.6%	-0.1
C=CCNS(=O)(=O)c1ccc(OCC(=O)OC)cc1	0.5	-2.6	-22.5%	0.1%	5.2%	0.0
C/C(=N\NC(=O)c1ccccc1O)c1cccs1	0.5	19.2	3.2%[15.4 µM]	·	1.2%	-1.0
COc1ccc(CCNC2=C(Cl)C(=O)N(CCc3ccc(OC)c(OC)c3)C2=O)cc1OC	1.4	19.9	-4.5%	0.7%	?	7.6
COc1ccc(-c2ccc(OC)c([C@H]3[C@@H]4C=CCC[C@@]4(C)C(=O)N3Cc3ccccc3)c2)cc1OC	3.8	47.5	·	?	-12.0%	0.6
COc1ccc(S(N)(=O)=O)cc1C(=O)OCC(=O)Nc1sccc1C#N	-0.3	6.0	-15.2%	·	-1.3%	·
COC(=O)c1c(CSc2cccc(C)c2)noc1C(=O)NCc1ccco1	3.1	24.2	0.9%	-3.5%	-23.7%	-0.6

(cont.)
SMILES	TRPML1 ag	TRPML1 blocker	gsp agonist	ClpP mod	gsp antagonist	Menin-MLL FL inh
Cc1cc(-c2ccc([N+](=O)[O-])cc2)nc2ccccc12	1.5	19.3	13.0%[15.4 µM]	·	-3.1%	3.9
CCOc1ccc(-c2nc3c(c(CC)nn3-c3ccccc3)c3cc(OC)c(OC)cc23)cc1	-1.0	-4.9	·	-11.3%	·	·
COCc1cc(C)n(CC(=O)Nc2cccc(C)c2)c(=O)c1C#N	-0.9	-3.9	25.6%	4.5%	6.1%	-4.0
Cc1ccn(CC(=O)N2CCCC(N3CCN(Cc4ccc5c(c4)OCO5)CC3)C2)n1 (stereo unspecified)	0.3	9.1	-48.3%[inhibitor]	-6.6%	1.9%	·
O=C(COC(=O)c1cccnc1Cl)NCc1ccc(F)cc1	-0.9	12.5	0.2%	0.1%	7.7%	·
Cc1cccc(-n2nnc3c(=O)n(CC(=O)Nc4cc(C)on4)cnc32)c1	1.1	-5.2	-8.5%[15.4 µM]	0.0%	7.4%	3.4
Cc1cc(C)nc(NS(=O)(=O)c2ccc(NC(=O)c3ccccc3O)cc2)n1	1.1	-7.2	·	3.5%	·	·
CCOc1ccc(NS(=O)(=O)c2ccc3nc(-c4ccccc4)[nH]c3c2)cc1	0.9	16.2	·	-1.3%	·	·
COCCOc1cc(-n2cccc2)c(Cl)cc1Cl	2.5	1.4	2.0%	·	-12.2%	1.2
Cc1nc2ccc(NC(=S)NCCCO)cc2nc1C	-0.1	-5.8	16.4%	·	-1.6%	2.9
COc1ccc(C(=O)NCCSc2ccccc2C)cc1	·	·	4.6%	0.9%	-20.9%	1.9
NC1=NC(=Nc2ccc(S(N)(=O)=O)cc2)c2ccccc21	·	·	-3.9%	-3.8%	3.8%	-0.6
CC(=O)Nc1ccc(NC(=O)CCN2C(=O)c3ccccc3C2=O)cc1	-0.1	13.4	1.7%	2.1%	-7.1%	0.2
Brc1ccc(CSc2nnc3ccccn23)cc1	·	·	?	-28.6%	-5.2%	-3.3
CCOC(=O)C(C)Sc1ncc(-c2ccc(Cl)cc2)cn1 (stereo unspecified)	1.4	59.4	?	-24.6%	-34.5%	3.0
COc1ccc(NC(=O)c2cccs2)cc1C(=O)N1CCN(c2ccccc2)CC1	-0.3	0.0	0.0%	0.5%	-2.7%	·
Cc1cccc(C)c1NC(=O)CSc1cc(C(=O)c2nccn2C)c2ccccc2n1	0.5	11.8	-2.4%[15.4 µM]	0.4%	-26.5%	1.2
COc1ccc(C2C(=O)c3ccccc3C2=Nc2ccc(Br)cc2)cc1 (stereo unspecified)	2.3	2.1	11.3%	-1.2%	-16.8%	0.9

Screening results (PubChem BioAssay)
